VACV Venus inh – qHTS for Stage-Specific Inhibitors of Vaccinia Orthopoxvirus: Venus Reporter Primary qHTS | AID 720580, 2013 | Vaccinia virus Venus reporter expression, fluorescence | 330,000 compounds, 0.46% hits | Potency, µM (top dose mostly 36.5 µM), for the others: at the highest dose activity change, negative = inhibition, hits mostly inhibitors; active means well fitted inhibition curve with a large enough effect; inconclusive means small, poorly fitted or top-dose-only effect; inactive means no such curve, though single readings can be large or run the other way; tested in A549 cells; further: nearly all actives have a fitted effect of over 30% in size; inactives centre near -10
Vaccinia mCherry – qHTS for Stage-Specific Inhibitors of Vaccinia Orthopoxvirus: mCherry Reporter Primary qHTS; Potency, µM (top dose mostly 36.5 µM), for the others: top-dose activity change, negative = inhibition, usual class: inhibitors; Vaccinia virus mCherry reporter infection, fluorescence; about a quarter of the inactives have no number; AID 720579, 2013; 310,000 compounds, 0.63% hits; active = well fitted inhibition curve with a large enough effect; inconclusive = small, poorly fitted or top-dose-only effect; inactive = no such curve, though single readings can be large or run the other way; tested in A549 cells; further: nearly all actives have a fitted effect of over 35% in size; inactives centre near -10
* hit, by the source's call; i = inactive; ? = inconclusive; / = no result given; [ ] = remark or other dose. On the % scale 0 is the no-effect control and ±100 the full control effect; potency means the concentration at half of the fitted maximal effect.

structure,VACV Venus inh,Vaccinia mCherry
Nn1c(SCC(=O)Nc2ccc3c(c2)OCCO3)nnc1-c1cccnc1,-13%,-16%
Cc1cccnc1C(NC(=O)C1CCN(CCCOc2ccccc2)CC1)c1ccc(F)cc1 (stereo not given),-22%,14%
O=C(Nc1cccc(S(=O)(=O)N2CCCCC2)c1)c1cccs1,-10%,-17%
Cc1ccc(S(=O)(=O)N(C)C[C@@H]2Oc3ccc(NS(C)(=O)=O)cc3CC(=O)N([C@H](C)CO)C[C@@H]2C)cc1,-9%,-2%
CCCN(CCC)C(=O)CSc1nnc2cc(C)c3cc(C)cc(C)c3n12,-5%,-10%
Cn1cc(C=O)c2cc(S(=O)(=O)N3CCOCC3)ccc21,-5%,-2%
CC(C)(C)OC(=O)N1CCCC(C(=O)Nc2cccc(C(=O)NCCc3ccccc3)c2)C1 (stereo not given),-23%,-11%
COC(=O)c1ccc(NC(=O)c2cn(-c3cccc(C)n3)cn2)cc1,-12%,-8%
COc1ccc(N2CCN(C(C)C(=O)Nc3nnc(C)s3)CC2)cc1 (stereo not given),-2%,i
COc1ccc(NC(=O)CN(C)S(=O)(=O)c2ccc3nc(C)sc3c2)cc1Cl,-11%,-17%
c1ccc(COc2ccc(OCCOCCn3cncn3)cc2)cc1,4%,-3%
O=C(Cn1c(=O)n(-c2cccc(C(F)(F)F)c2)c(=O)c2sccc21)NCC1CCCO1 (stereo not given),3%,-7%
CCN1CCc2c(sc(-n3cccc3)c2C(C)NC(=O)Nc2ccc(C(=O)OC)cc2)C1 (stereo not given),5%,-12%
COc1ccccc1CNC(=O)[C@@H]1CCCN1C(=O)C1CCN(S(=O)(=O)c2ccc(C)cc2)CC1,-11%,i
NS(=O)(=O)c1ccc(Cc2ncc(C(F)(F)F)cc2Cl)s1,-13%,-15%
COc1ccc(Cn2cc(C(=O)c3ccc(C)cc3)c(=O)c3cc(OC)c(OC)cc32)cc1,-12%,-18%
Cc1cc(C)nc(/N=C(\N)Nc2ccc(C(C)C)cc2)n1,-17%[7.34 µM],-16%[7.34 µM]
CN(C)c1ccc(/C=C/CNC[C@H]2O[C@@H](n3ccc(N)nc3=O)[C@H](O)[C@@H]2O)cc1,0%,-27%
O=C(Nc1cccc2ccccc12)c1cnn2c1NC(=C1CC1)C=C2C(F)F,-14%,-7%
O=C(NN=C1CCC(c2ccccc2)CC1)c1cc2c(s1)CCCC2 (stereo not given),-7%,?
O=c1c2ccccc2n2c(-c3ccccc3O)nnc2n1Cc1ccc(F)cc1,-2%,-22%
c1cc(-c2ccc3c(c2)CCO3)n2cnnc2c1,-5%,2%
CC(NC(=O)COC(=O)CNC(=O)c1ccc(-c2ccccc2)cc1)c1ccccc1 (stereo not given),-7%,-24%
CC1(C)C2CCC1(CS(=O)(=O)NC(CC(=O)O)c1cccc(Br)c1)C(=O)C2 (stereo not given),-6%,i

One compound at a time, as listed above. Screens in order: VACV Venus inh	Vaccinia mCherry
Record of O=c1c2ccccc2n2c(-c3ccccc3O)nnc2n1Cc1ccc(F)cc1 → -2%	-22%
Record of CC1(C)C2CCC1(CS(=O)(=O)NC(CC(=O)O)c1cccc(Br)c1)C(=O)C2 (stereo not given) → -6%	i
Record of O=C(Nc1cccc2ccccc12)c1cnn2c1NC(=C1CC1)C=C2C(F)F → -14%	-7%

Next records follow.
structure,VACV Venus inh,Vaccinia mCherry
Cc1nnc(Nc2ccc(Cl)cc2)s1,-19%,-23%
Cc1ccc2c(c1)N(CC(=O)NCCCN1CCN(C)CC1)C(=O)CO2,-7%,-12%
CCN1C(=O)/C(=C\c2nc3ccccc3c(=O)n2CC)c2ccccc21,-23%,i
O=C(Cn1cc(C(=O)c2ccco2)c2ccccc21)Nc1ccccc1F,-8%,-15%
Clc1cccc(CSc2nnc(C3CCNCC3)o2)c1,2%,-15%
Cc1ccc(S(=O)(=O)N2CCC(C(=O)N3CCCC(C(F)(F)F)C3)CC2)cc1C (stereo not given),-15%,-12%
c1cnc2c(c1)ncn2C1CCNCC1,-4%,-8%
COc1ccccc1-n1c(SCC(=O)Nc2cccc(C)c2)nc2c(c1=O)SCC2,-8%,-3%
CC1=CC(=C(C#N)C#N)C=C(C)N1CCN1CCN(C(=O)Nc2cccc(Cl)c2)CC1,-7%,i
CC(ON1CC1(C(F)(F)F)C(F)(F)F)(C(N)=O)C(N)=O (stereo not given),-12%,i
Cc1ccccc1OCc1nnc(SCC(=O)Nc2c(C)n(C)n(-c3ccccc3)c2=O)n1-c1ccccc1,-18%,-3%
Cc1cc(CSc2ccccc2)ccc1NC(=O)c1cccc([N+](=O)[O-])c1,-22%,-27%
OC/C=C/c1ccc(O)c(O)c1,0%,i
Cc1cc(NC(=O)CCC(=O)N(Cc2ccc(F)cc2)C(C(=O)NC2CCCC2)c2ccco2)no1 (stereo not given),-13%,-19%
Cc1ccc(C(=O)CCC(=O)N2CCC(C(N)=O)CC2)cc1,-10%,-28%
Cc1ccccc1C(=O)NC(=S)N(C)C1CCCCC1,-15%,-24%
Cc1nc(-c2ccc(F)cc2)c(CC(=O)N(C)CC(=O)Nc2c(C)cccc2C)s1,-9%,-9%
Cc1ccc(Cn2nnc3c(=O)[nH]c(C4CCN(S(=O)(=O)c5cc(C)ccc5C)CC4)nc32)cc1,?,-13%[1.46 µM]
Cc1ccc(S(=O)(=O)N2CCN(C(=O)c3ccccc3Cc3ccccc3)CC2)c(C)c1,-14%,-5%
NC12CCc3c(no[n+]3[O-])C1(O)CC(c1ccccc1)=[N+]2[O-] (stereo not given),-10%,-16%
O=C(NCCc1ccccc1)c1cc(-c2cccc(Cl)c2)on1,3%,-5%
COc1ccc(-c2ccc(C)cc2)cc1[C@H]1[C@@H]2C=CCC[C@@]2(C)C(=O)N1Cc1ccccc1,-6%,i
C=CCc1ccc(OCC(O)CN2CCC(Cc3ccccc3)CC2)c(OC)c1 (stereo not given),?,/
Cc1cccc(OCC(=O)OCc2cc(=O)n3nc(C4CCCCC4)sc3n2)c1,-7%,-5%

Arranged by molecular weight (falling): part of the list above.
structure,VACV Venus inh,Vaccinia mCherry
Cc1ccccc1OCc1nnc(SCC(=O)Nc2c(C)n(C)n(-c3ccccc3)c2=O)n1-c1ccccc1,-18%,-3%
Cc1cc(NC(=O)CCC(=O)N(Cc2ccc(F)cc2)C(C(=O)NC2CCCC2)c2ccco2)no1 (stereo not given),-13%,-19%
Cc1ccc(Cn2nnc3c(=O)[nH]c(C4CCN(S(=O)(=O)c5cc(C)ccc5C)CC4)nc32)cc1,?,-13%[1.46 µM]
Cc1ccc(S(=O)(=O)N2CCN(C(=O)c3ccccc3Cc3ccccc3)CC2)c(C)c1,-14%,-5%
COc1ccccc1-n1c(SCC(=O)Nc2cccc(C)c2)nc2c(c1=O)SCC2,-8%,-3%
CC1=CC(=C(C#N)C#N)C=C(C)N1CCN1CCN(C(=O)Nc2cccc(Cl)c2)CC1,-7%,i
Cc1ccc(S(=O)(=O)N2CCC(C(=O)N3CCCC(C(F)(F)F)C3)CC2)cc1C (stereo not given),-15%,-12%
Cc1nc(-c2ccc(F)cc2)c(CC(=O)N(C)CC(=O)Nc2c(C)cccc2C)s1,-9%,-9%
Cc1cccc(OCC(=O)OCc2cc(=O)n3nc(C4CCCCC4)sc3n2)c1,-7%,-5%
Cc1cc(CSc2ccccc2)ccc1NC(=O)c1cccc([N+](=O)[O-])c1,-22%,-27%
O=C(NCCc1ccccc1)c1cc(-c2cccc(Cl)c2)on1,3%,-5%
Clc1cccc(CSc2nnc(C3CCNCC3)o2)c1,2%,-15%
CC(ON1CC1(C(F)(F)F)C(F)(F)F)(C(N)=O)C(N)=O (stereo not given),-12%,i
Cc1ccc(C(=O)CCC(=O)N2CCC(C(N)=O)CC2)cc1,-10%,-28%
Cc1ccccc1C(=O)NC(=S)N(C)C1CCCCC1,-15%,-24%
c1cnc2c(c1)ncn2C1CCNCC1,-4%,-8%
OC/C=C/c1ccc(O)c(O)c1,0%,i

Going on with the list.
structure,VACV Venus inh,Vaccinia mCherry
Cc1ccc(NC(=O)CN2C(=O)C(c3ccc(F)cc3)=NC23CCCCCC3)c(C)c1,-9%,-23%
Cc1cc(C)c2oc(-c3ccc(NC(=O)COc4ccccc4C)cc3)nc2c1,-12%,-17%
Nc1nc(-c2ccc(-n3nncc3-c3ccco3)cc2)cs1,?,?
CC(C)C(=O)Nc1ccc(Cl)cc1-c1nc2ccccc2[nH]c1=O,-5%,-14%
Cc1c(C(=O)NC2CCCc3ccccc32)oc2ccccc12 (stereo not given),-12%,-9%
CCC1CN(C(=O)N2CCC(C(=O)NCCc3ccc(C)cc3)CC2)c2ccccc2O1 (stereo not given),-12%,2%
O=C(Nc1ccc(Oc2ccccc2)cc1)c1ccc(F)c(S(=O)(=O)N2CCN(c3cccc(Cl)c3)CC2)c1,-35%,?
COc1ccc2[nH]c(C(=O)N/N=C/c3ccc(O)cc3O)cc2c1,?,?
Cc1ccc(Cl)cc1N1CCN(C(=O)C2CCN(S(=O)(=O)c3cnc[nH]3)CC2)CC1,-2%,-16%
O=C(Nc1ccc(Cl)cc1C(=O)c1ccccc1)c1cc(Cl)cc(Cl)c1,8%,-4%
Fc1ccccc1-c1nc2c(s1)CCc1onc(-c3ccc(Br)cc3)c1-2,10%,?
O=C(CCNS(=O)(=O)c1cccs1)NC1CCN(Cc2ccccc2)CC1,-6%,-23%
Cc1ccc(NC(=O)C2CCN(S(=O)(=O)c3ccc4[nH]c(=O)oc4c3)CC2)cc1F,-10%,-10%
Cc1cccc(CNC(=O)C2CCC(CNS(=O)(=O)c3ccc4c(c3)CCCC(=O)N4)CC2)c1 (stereo not given),-10%,-5%
Nc1nonc1-c1nc2ccccc2n1Cc1ccccc1,?,?
CCN(CC)c1ccc(NC(=O)C2=CCN(S(=O)(=O)c3ccc(F)cc3)CC2)c(C)c1,-24%,i
Cc1ccc(C=NNC(=O)C(=O)Nc2ccc(Cl)c([N+](=O)[O-])c2)cc1,8%,3%
COc1cc(OC)c(C2=NOC(C(=O)Nc3cc(C)nn3-c3ccccc3)C2)cc1Cl (stereo not given),-18%,i
Cc1ccc(SCC(=O)NNC(=O)c2cncc(Br)c2)cc1,-4%,-9%
C[C@H](CO)N1C[C@H](C)[C@@H](CN(C)C(=O)c2cnccn2)Oc2ncc(Br)cc2C1=O,-8%,-7%
Cc1cc(Oc2ncccc2[N+](=O)[O-])c2cc(Cl)ccc2n1,-30%,-22%
CCOC(=O)c1c(C)[nH]c(C)c1S(=O)(=O)N(C)CC(=O)Nc1ccc(C)c(F)c1,-7%,-19%
COCCNC(=O)c1ccc(C(=O)NCCOC)s1,-12%,i
CCN(CC)c1ccc(/C=N/N2C(C)CCCC2C)c(O)c1 (stereo not given),6%,-24%
Cc1ccc(-c2noc(-c3nnn(CC(=O)Nc4cc(C)cc(C)c4)c3N)n2)cc1,-4%,1%
Cc1ccc(C)c(Cn2c3ccccc3c3cnn(CC(=O)NC(C)CCc4ccccc4)c(=O)c32)c1 (stereo not given),-13%[7.34 µM],-11%[7.34 µM]
Clc1ccc(OCC#CCN2CCCCCC2)cc1,-14%,?
Cc1ccc(C(C2C(=O)CC(C)(C)CC2=O)C2C(=O)CC(C)(C)CC2=O)s1,6%,-2%
CC(=O)N1CCN(S(=O)(=O)c2cccc(C(=O)Nc3ccc(OC(F)F)cc3)c2)CC1,?,?
CC(Cc1ccccc1)NC(=O)CN1C(=O)c2ccccc2S1(=O)=O (stereo not given),-15%,-6%
O=C(CN1C(=O)NC2(CCCCCC2)C1=O)NCc1ccco1,-2%,0%
CCOc1ccccc1CNC(=O)Cn1cc2c(n1)-c1c(oc(C(=O)N3CCCC3)c1C)CC2,-14%,-11%
CC(C)c1ccc(NC(=O)COC(=O)[C@H](CCC(N)=O)NC(=O)c2ccc(F)cc2)cc1,-20%,-24%
CSCCC(NC(=O)c1ccccc1)C(=O)O (stereo not given),-10%,-14%
CCc1ccccc1NC(=O)Cn1c(=O)n(CCc2ccccc2)c(=O)c2sc3ccccc3c21,5%,-10%
O=C(Nc1nc2c(F)cccc2s1)c1ccc2c(c1)OCCO2,-6%,0%
CC(C)c1nnc(NC(=O)c2nc(SCc3ccc(F)cc3)ncc2Cl)s1,9%,-1%
COc1ccc(NC(=O)c2cc(-c3ccccc3O)no2)cc1,-8%,-2%
CC(O)[C@H]1CNCCN1CCc1cc(C(F)(F)F)cc(C(F)(F)F)c1 (stereo not given in full),-29%,-22%
CCOC(=O)c1c(-c2ccccc2)csc1NC(=O)C1CCCO1 (stereo not given),-9%,i
